Source: PubChem BioAssay
RecA intein inh – Mtb RecA intein splicing inhibitors, primary screen, biochemical, fluorescence, HTS | Protein RecA (Mycobacterium tuberculosis (strain ATCC 25618 / H37Rv)), P9WHJ3 | cell-free RecA intein splicing | inhibition, %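 (about 9 µM by stock and volumes)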 | actives 0.75% (n = 290,000); in the data active means inhibition above about 30%;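 further: 0% = vehicle wells and 100% = reference inhibitor control wells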
Target sequence (P9WHJ3 whole entry, looked up): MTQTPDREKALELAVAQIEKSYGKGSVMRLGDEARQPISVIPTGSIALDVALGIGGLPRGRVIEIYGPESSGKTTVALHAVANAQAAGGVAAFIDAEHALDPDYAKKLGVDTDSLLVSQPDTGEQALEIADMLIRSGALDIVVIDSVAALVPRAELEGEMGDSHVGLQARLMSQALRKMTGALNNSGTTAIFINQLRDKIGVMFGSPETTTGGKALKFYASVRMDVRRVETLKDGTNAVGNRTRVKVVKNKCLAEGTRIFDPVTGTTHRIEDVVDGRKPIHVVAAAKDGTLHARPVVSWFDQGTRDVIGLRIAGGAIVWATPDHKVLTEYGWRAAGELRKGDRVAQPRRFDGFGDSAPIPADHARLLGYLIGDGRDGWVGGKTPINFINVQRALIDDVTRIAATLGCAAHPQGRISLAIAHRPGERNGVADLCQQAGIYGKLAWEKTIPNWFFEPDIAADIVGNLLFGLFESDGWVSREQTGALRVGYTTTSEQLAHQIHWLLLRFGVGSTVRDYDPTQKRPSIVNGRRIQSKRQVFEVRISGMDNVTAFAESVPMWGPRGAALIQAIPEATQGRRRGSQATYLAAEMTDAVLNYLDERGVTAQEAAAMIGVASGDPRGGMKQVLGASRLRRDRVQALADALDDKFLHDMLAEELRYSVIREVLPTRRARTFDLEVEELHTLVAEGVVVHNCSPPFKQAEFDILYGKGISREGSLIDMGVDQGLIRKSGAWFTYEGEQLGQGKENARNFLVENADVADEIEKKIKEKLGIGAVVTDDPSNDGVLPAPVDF
YopH PTP inh – YopH tyrosine phosphatase inhibitors, primary screen, biochemical, fluorescence Ex485/Em525; YopH tyrosine phosphatase [Yersinia enterocolitica]; inhibition, %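 (about 10 µM by stock and volumes)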; actives 0.16% (n = 140,000); AID 898, 2007;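 active means inhibition of 50% or more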;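 further: controls were vehicle for no effect and minimum signal wells for full effect; inactives centre near -20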
Mtb H37Rv – M. tuberculosis H37Rv growth inhibitors, H37Rv strain (AID 1626). M. tuberculosis H37Rv growth inhibition; higher % means a stronger effect. one-dose inhibition, % at 10 µM; IC50 in µM for titrated hits. actives 0.95% (n = 220,000);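 active means confirmed in a dose series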;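 further: bacteria incubated seven days before Alamar blue readout; 0% = bacteria only wells and 100% = bacteria with antibiotic wells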
Mtb betalactam – beta-lactam sensitization of Mtb H37Rv, H37Rv; AID 434955, 2010; actives 0.27% (n = 330,000); M. tuberculosis H37Rv growth with meropenem, percent inhibition; hits of this screen are not shown here; inhibition, % at 25 µM;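 active means about 74% or more and at least 40 points above the plate without the antibiotic, then above 30% in a dose series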;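 further: growth measured after seven days incubation then overnight dye step; 0% = bacteria only wells and 100% = bacteria with antibiotic; twin plates without the antibiotic show which effects depend on it; some results filed as inactive read as strong as hits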
Arbovirus anti – antivirals against arbovirus infection, primary screen, cell-based, full library, 10K replicate subset | arbovirus infection cell-based antiviral screen | inhibition, % at 10 µM | actives 0.37% (n = 200,000);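 active means inhibition from about 30%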;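 further: bluetongue infection of BSR cells; cell survival read as ATP light after 72 h; 0% = infected wells without compound and 100% = uninfected wells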
Arbovirus anti repeat – recorded beside Arbovirus anti, whose call it bears; inhibition, %; measured here: 10K subset replicate screen; many hits read low in the repeat;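 first of two repeat runs on a subset; 0% = infected and 100% = uninfected wells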
Numbers without * were called inactive; · = no result given. A portion of the library; rates above refer to the full screens.

SMILES | RecA intein inh | YopH PTP inh | Mtb H37Rv | Mtb betalactam | Arbovirus anti | others
CC(C)(C)n1nnnc1C(c1cc2cc3c(cc2[nH]c1=O)OCCO3)N1CCSCC1 (stereo not given) | -1.1 | -32.6 | 0.4% | 2.0 | 0.4
COc1ccc(CCNC(=O)c2ccccc2SC)cc1 | 0.0 | · | 6.9% | -2.9 | -3.0
Cc1cccc(C(=O)Oc2ccc(/C=N/NC(=O)c3ccc(O)cc3)cc2)c1 | -1.2 | · | · | 9.1 | ·
Clc1ccc(-c2nnc(-c3ccc(Br)cc3)c(N3CCSCC3)n2)cc1 | -1.1 | -34.7 | -4.3% | -7.6 | -10.7
COC(=O)c1ccc(NC(C(=O)OC)C(C)C)c([N+](=O)[O-])c1 (stereo not given) | 1.4 | -31.8 | 6.1% | -2.1 | -3.8
COC(=O)[C@@H](N)Cc1ccc(O)cc1 | 0.9 | -27.7 | · | 6.8 | -3.1
CCn1ncc(/C=C/C(=O)C2CC2)c1C | -0.2 | -11.8 | -1.2% | 25.2 | 3.2
Cc1cc(=O)oc2cc(NC(=O)c3ccccc3OC(F)F)ccc12 | -2.0 | · | · | -1.0 | ·
COC(=O)C(Cc1c[nH]c2ccccc12)NC(=O)C(=O)c1c[nH]c2ccccc12 (stereo not given) | 1.3 | · | · | 66.0 | ·
O=C(c1cc2ccccc2o1)N1CCN(Cc2ccc3c(c2)OCO3)CC1 | -2.4 | · | · | 36.5 | ·
Cc1ccc2c(c1)C(c1ccc(O)cc1)(c1ccc(O)cc1)C(=O)N2C | 8.5 | · | -1.4% | -5.7 | 0.4
CC(C)(C)NC(=O)C1CCCN(S(=O)(=O)c2cccc3cccnc23)C1 (stereo not given) | -1.3 | · | -5.3% | -1.4 | 3.9 | Arbovirus anti repeat=-1.0
CCOC(=O)C1=C(C)N=c2s/c(=C/c3ccc(OCC(=O)O)cc3)c(=O)n2C1c1ccc(F)cc1 (stereo not given) | 1.1 | · | · | 8.4 | ·
NC(=O)c1cccn1-c1ncc(C(F)(F)F)cc1Cl | -0.7 | · | 23.1% | 97.7 | -1.3
COC(=O)c1cccc(N/C=C(\[N+](=O)[O-])S(=O)(=O)c2ccccc2)c1 | 1.6 | · | · | -0.5 | ·
Cc1ccc(C)c(OCCC(=O)OCC(=O)NC(=O)NC2CCCC2)c1 | 4.0 | · | · | -0.8 | ·
COc1cccc(C2CC(c3ccc(C)cc3)=NN2C(=O)c2ccccc2F)c1OC (stereo not given) | 11.6 | · | · | 2.6 | ·
O=C(Nc1ccc2c(c1)OCO2)c1ccncc1 | 2.7 | -57.8 | 0.9% | -1.3 | -4.3 | Arbovirus anti repeat=5.0
c1ccc(C2=NNC(=NC3CC3)SC2)cc1 | 1.3 | 8.2 | -9.0% | -2.5 | -11.6
CCOc1ccc2nc(NC(=O)CSc3ccc(Cl)cc3)sc2c1 | -2.1 | -11.4 | 82.6% | 64.3 | 8.7

Random excerpt: 2 compounds from above, in no set order.
SMILES | RecA intein inh | YopH PTP inh | Mtb H37Rv | Mtb betalactam | Arbovirus anti | others
Clc1ccc(-c2nnc(-c3ccc(Br)cc3)c(N3CCSCC3)n2)cc1 | -1.1 | -34.7 | -4.3% | -7.6 | -10.7
CC(C)(C)NC(=O)C1CCCN(S(=O)(=O)c2cccc3cccnc23)C1 (stereo not given) | -1.3 | · | -5.3% | -1.4 | 3.9 | Arbovirus anti repeat=-1.0

The list goes on.
SMILES | RecA intein inh | YopH PTP inh | Mtb H37Rv | Mtb betalactam | Arbovirus anti | others
C=CC[C@@H]1Cc2c(Br)ccc(Br)c2[C@@H](CC=C)N1 | 18.2 | -5.7 | 2.2% | -4.6 | -0.4
O=S(=O)(Nc1ccc(N2CCOCC2)cc1)c1ccc2ccccc2c1 | 4.4 | -23.7 | · | -1.3 | 0.1
CCN(CC)c1ccc(NC(=O)CN2CCN(CC(=O)Nc3ccccc3F)CC2)cc1 | -7.5 | 1.5 | 6.9% | -3.9 | -2.2
O=C(NCc1cccnc1)c1cc(C(=O)C2CC2)c[nH]1 | -5.1 | · | -0.8% | 1.3 | 9.7
O=C(NCCNc1ccc([N+](=O)[O-])cc1)c1cccc2c(Br)cccc12 | -1.8 | -15.8 | 4.5% | 6.3 | -1.6
CCOC(Cn1c(SCc2cc(C(C)=O)ccc2OC)nc2ccccc2c1=O)OCC | -6.0 | -14.6 | -1.4% | 5.7 | -3.6
NC(=O)CCn1c(C(=O)c2cccc([N+](=O)[O-])c2)c2ccccc2[n+]1[O-] | 3.7 | · | · | -4.7 | ·
O=C(Cn1cc(SCc2ccc(Cl)cc2)c2ccccc21)N1CCOCC1 | -4.7 | -19.9 | 5.5% | 3.1 | 14.3
Cc1cc(NC(=O)Nc2cccc3ccccc23)no1 | -0.4 | -36.1 | 5.8% | -6.8 | -4.8 | Arbovirus anti repeat=2.0
COc1cc(C(=O)Sc2ccc(C)cc2)cc(OC)c1OC | 16.8 | -19.3 | · | 3.3 | -2.1

Six structures out of the list, ordered by molar mass, lowest first:
SMILES | RecA intein inh | YopH PTP inh | Mtb H37Rv | Mtb betalactam | Arbovirus anti | others
Cc1cc(NC(=O)Nc2cccc3ccccc23)no1 | -0.4 | -36.1 | 5.8% | -6.8 | -4.8 | Arbovirus anti repeat=2.0
O=C(NCc1cccnc1)c1cc(C(=O)C2CC2)c[nH]1 | -5.1 | · | -0.8% | 1.3 | 9.7
COc1cc(C(=O)Sc2ccc(C)cc2)cc(OC)c1OC | 16.8 | -19.3 | · | 3.3 | -2.1
O=S(=O)(Nc1ccc(N2CCOCC2)cc1)c1ccc2ccccc2c1 | 4.4 | -23.7 | · | -1.3 | 0.1
O=C(Cn1cc(SCc2ccc(Cl)cc2)c2ccccc21)N1CCOCC1 | -4.7 | -19.9 | 5.5% | 3.1 | 14.3
CCOC(Cn1c(SCc2cc(C(C)=O)ccc2OC)nc2ccccc2c1=O)OCC | -6.0 | -14.6 | -1.4% | 5.7 | -3.6

(more compounds)
SMILES | RecA intein inh | YopH PTP inh | Mtb H37Rv | Mtb betalactam | Arbovirus anti | others
CCOC(=O)N1CCC(NC(=O)C2CCCN(Cc3nc(-c4cccc(Cl)c4)oc3C)C2)CC1 (stereo not given) | 3.4 | -29.1 | 12.5% | -1.1 | 9.2 | Arbovirus anti repeat=-7.9
O=C1CCCC(O)=C1C=Nc1cccc(C(F)(F)F)c1 | -4.5 | · | 8.3% | -2.4 | 5.6
O=C1NC(=O)C2(Cc3ccccc3N3CCCC32)C(=O)N1Cc1ccccc1 (stereo not given) | -21.4 | 24.5 | -14.7% | -3.0 | 0.0
COc1ccccc1C(=O)O/N=C(/c1ccncc1)c1ccc([N+](=O)[O-])cc1 | -1.7 | · | 5.5% | 2.2 | 1.9
O=C(CCNC(=O)c1ccc(Br)cc1)Nc1cc(Cl)ccc1-n1cncn1 | -2.4 | · | · | -0.7 | ·
COc1ccc(NC(=O)CSc2nnc(-c3ccoc3C)n2CCc2ccccc2)cc1 | 6.7 | -9.3 | 1.8% | -1.6 | -13.3
Cc1ccccc1-n1c(SCC(=O)N/N=C/C=C/c2ccccc2[N+](=O)[O-])nc2ccccc2c1=O | -1.0 | 0.4 | 5.8% | 9.1 | 1.3
Cc1ccc(NC(=O)CSCC(=O)Nc2ccc(N3CCOCC3)c(Cl)c2)cc1 | 0.7 | -38.7 | 5.6% | -1.5 | 2.6
COc1ccc(-c2nc3ccccn3c2C=O)cc1 | 1.2 | -12.4 | -10.0% | -3.3 | 2.6
Cc1ccc2nc(SCC(=O)Nc3cccc([N+](=O)[O-])c3)[nH]c2c1 | 2.6 | -26.4 | 7.6% | 92.3 | 1.8
CC(C)(C)NS(=O)(=O)c1ccc(-c2csnn2)s1 | -1.3 | 4.1 | 1.3% | -0.9 | 2.2
CCCNC(=O)/C(C#N)=C1\N=C(NC(=O)c2cccs2)c2ccccc21 | -0.9 | · | · | 4.9 | ·
CC(=O)S[C@@H]1CC2=CC(=O)CC[C@]2(C)[C@H]2CC[C@@]3(C)[C@@H](CC[C@@]34CCC(=O)O4)[C@H]12 | 14.5 | · | -0.3% | -2.1 | ·
C/C(=N\c1nc2ccccc2n1C)c1cc(Cl)ccc1O | -0.6 | -29.6 | -11.2% | -9.4 | 10.0
COC(=O)C1C(=O)c2c(n[nH]c2C)CC1(C)C (stereo not given) | -11.2 | -6.1 | -7.1% | -16.4 | -0.8
O=C1CC2CS(=O)(=O)CC2N1c1ccc(Cl)cc1Cl (stereo not given) | -1.2 | -11.5 | 2.5% | -0.1 | 4.7
Cc1cccc(CSc2nnc(-c3cccs3)n2Cc2ccco2)c1 | 18.6 | -4.1 | -2.9% | 0.5 | 10.4
O=C(CNC(=O)c1cc(S(=O)(=O)N2CCCCC2)ccc1N1CCOCC1)Nc1ccc(F)c(F)c1 | -1.1 | · | · | 8.7 | ·
Cc1ccc(CSCCNS(=O)(=O)c2ccc([N+](=O)[O-])cc2)cc1 | 2.5 | · | · | 1.4 | ·
Cc1ccc(CN(c2ccc(C(=O)N3CCCC3)cc2)S(C)(=O)=O)cc1 | -4.4 | -10.5 | -0.1% | 85.7 | -8.6
CC(C)[C@H](NC(=O)[C@@H]1Cc2ccccc2CN1)C(=O)NC1CCCCC1 | -0.1 | · | · | -5.5 | ·
CC1(C)CC(=O)C2=C(C1)OC1=C(C(=O)CC(C)(C)C1)C2c1ccc(O)cc1O | -4.4 | -51.6 | -4.7% | 19.3 | -22.3
Cc1ccc(C(O)(CNCc2ccccc2)c2ccccc2)cc1 (stereo not given) | 0.4 | · | · | 2.6 | ·
CCOC(=O)C1=C(SCC(=O)Nc2ccccc2)NC(=O)C(C#N)C12CCCCC2 (stereo not given) | · | -29.3 | -1.9% | -10.8 | -5.2 | Arbovirus anti repeat=-3.1
C/C(=N\NC(=O)c1ccc2c(c1)OCO2)c1ccc(O)cc1 | 1.0 | · | 0.1% | -1.4 | ·
O=C(Nc1ccccc1N1CCCC1)c1ccc2c(c1)OCO2 | 0.9 | -25.7 | -13.7% | · | 2.8
CCOc1cc(C)c(Cl)cc1S(=O)(=O)NCc1ccco1 | -1.0 | 1.1 | 1.4% | 0.8 | -6.5
COCc1cc(C)nc(OCC(=O)N/N=C/c2ccco2)c1C#N | -4.0 | -38.4 | -4.9% | -6.9 | 9.1
O=S(=O)(c1cc(Cl)ccc1Cl)N1CCNCC1 | 1.2 | -33.2 | -1.9% | -8.8 | 6.0
C/C(=N\OC(=O)c1ccc(OC(C)C)cc1)c1ccc(C)c(C)c1 | 13.5 | -8.9 | -7.8% | 83.5 | -6.8
Cc1ccc(C(=O)N/C(=C\c2ccco2)C(=O)N2CC(C)OC(C)C2)cc1C (stereo not given) | 1.7 | · | · | -5.6 | ·
O=C(OCC(=O)N1CCN(C(=O)c2ccco2)CC1)c1ccc(S(=O)(=O)N2CCCCC2)cc1 | 1.2 | -34.6 | -10.6% | -1.2 | 3.4
COc1ccc(CC(NC(C)=O)C(=O)NC2CCN(S(=O)(=O)c3ccccc3)CC2)c(OC)c1 (stereo not given) | 0.1 | · | · | 6.7 | ·
CCC1CCCCN1C(=O)CSc1nnc(-c2c[nH]c3ccccc23)o1 (stereo not given) | 0.9 | -49.1 | 9.0% | 10.7 | 3.2
C=CCn1c(C)cc(C(=O)Cn2nc(C(=O)O)c3ccccc3c2=O)c1C | 2.3 | · | -0.1% | -2.5 | 5.1
CCCn1cc(NC(=O)c2cc(-c3ccccc3)on2)cn1 | -2.4 | -26.8 | -6.6% | -10.8 | -21.8
CCCCC(=O)Nc1nc2ccc(C(=O)OC)cc2s1 | 0.9 | · | 10.4% | 0.4 | -1.7
CCC(C)c1ccccc1NC(=O)COC(=O)c1ccc(N2CCCC2)c([N+](=O)[O-])c1 (stereo not given) | 3.0 | -9.8 | 11.0% | -2.3 | 4.8
COc1ccc(C(=O)Nc2c3c(nn2C(C)(C)C)CS(=O)(=O)C3)cc1OC | -1.5 | · | · | -7.7 | ·
COc1ccccc1N(CC(=O)NC1CCCC1)S(=O)(=O)c1ccc(C)cc1 | -1.5 | · | · | 0.0 | ·
c1cc2c(cc1CN1CCNCC1)OCO2 | -1.0 | · | · | -12.0 | ·
Cc1nn2cc(-c3ccc(Cl)cc3)cnc2c1Cl | -3.9 | · | -1.7% | -2.6 | -7.6
CC(=O)Oc1ccc(-c2cccc(C(=O)NCCCO)c2)cc1 | 4.2 | -25.2 | -3.4% | -2.7 | -13.6
O=[N+]([O-])c1cccc(N(CC(O)CN2CCCCC2)S(=O)(=O)c2ccccc2)c1 (stereo not given) | 2.2 | · | · | -0.1 | ·
CCN1C(=O)/C(=C2\SC(=S)N(NC(=O)c3ccccc3O)C2=O)c2ccccc21 | -3.0 | · | 1.9% | -0.9 | ·
CCc1c(C)sc2nc3c(C(=O)N4CCOCC4)cc(C(=O)c4ccccc4O)cn3c(=O)c12 | 0.7 | · | 55.2% | 61.6 | 3.2
